Bioassay records deposited in PubChem BioAssay by Broad Institute.
DUX4 txn inh – blocks DUX4-driven transcriptional activation; 293T-iDUX4 ZSCAN4-Gaussia luciferase reporter, 24 h; active compounds read low; activity change, negative = inhibition, % (test concentration not listed); 37,000 tested, 0.8% active; AID 1224904;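 active = -10% or lower and over 25 points stronger than a control reporter; inconclusive = -10% or lower with a smaller gap; inactive = above -10%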;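 also: 0% = median of neutral control wells and -100% = median of positive control wells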
DUX4 txn inh difference – second read-out of DUX4 txn inh, no call of its own (marks repeat the call); Gaussia minus Italica difference, %; measured here: selective DUX4 reporter inhibition;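 worked out from the two reporters; negative = selective loss of the DUX4 reporter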
DUX4 txn inh control – further read-out of DUX4 txn inh, marked with its call; activity change, negative = inhibition, %; measured here: Italica tet-on control reporter;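 0 = neutral control and -100 = positive control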
* hit, by the source's call; ? = inconclusive; . = no result given.

SMILES	DUX4 txn inh	DUX4 txn inh difference	DUX4 txn inh control
O=C(C[C@H]1C[C@H]2c3cc(NC(=O)CC4CC4)ccc3O[C@H]2[C@@H](CO)O1)NCc1ccc(Cl)cc1	-1	2	-3.6
O=C(C[C@@H]1CC[C@H]2[C@@H](COC[C@@H](O)CN2C(=O)C2CCCC2)O1)NCc1ccncc1	-1	1	-1.5
COc1ccc2c3c([nH]c2c1)[C@H](CO)N(Cc1ccccn1)CC31CN(C(C)=O)C1	20	11	9.0
C[C@@H]1CCCCO[C@@H](CN(C)S(=O)(=O)c2ccc(Cl)cc2)[C@@H](C)CN([C@H](C)CO)C(=O)c2cc(NC(=O)Nc3ccc(C(F)(F)F)cc3)ccc2O1	-4	-5	1.4
COCCNC(=O)C[C@@H]1CC[C@H]2[C@@H](COc3ccc(NC(=O)C4CCOCC4)cc3C(=O)N2C)O1	0	-1	0.3
CCc1cnc(N2[C@H](C#N)[C@@H](c3ccccc3C3=CCCC3)[C@@H]2CO)s1	?	.	.
CC(C)CC#Cc1ccc([C@@H]2[C@H]3CN(S(=O)(=O)c4cccc(F)c4)CC(=O)N3[C@H]2CO)cc1	?	.	.
O=C(NCC1CCCCC1)[C@H]1[C@H](CO)[C@H]2Cn3c(ccc(C4=CCCC4)c3=O)[C@@H]1N2C(=O)CC1CC1	-6	-2	-3.5
CO[C@@H]1CN(C)C(=O)c2cc(NC(=O)Nc3cccc(Cl)c3)ccc2OC[C@H](C)N(C(=O)Nc2c(C)noc2C)C[C@H]1C	5	1	4.5
N#C[C@@H]1[C@H](c2ccc(-c3ccc(F)cc3)cc2)[C@H](CO)N1c1nc(-c2ccccc2)cs1	1	0	0.7

Given with each value named: part of the list above.
SMILES: CC(C)CC#Cc1ccc([C@@H]2[C@H]3CN(S(=O)(=O)c4cccc(F)c4)CC(=O)N3[C@H]2CO)cc1
  DUX4 txn inh = ?	DUX4 txn inh difference = .	DUX4 txn inh control = .

SMILES: COc1ccc2c3c([nH]c2c1)[C@H](CO)N(Cc1ccccn1)CC31CN(C(C)=O)C1
  DUX4 txn inh = 20	DUX4 txn inh difference = 11	DUX4 txn inh control = 9.0

Following part:
SMILES	DUX4 txn inh	DUX4 txn inh difference	DUX4 txn inh control
C[C@@H]1CCCCO[C@H](CN(C)Cc2ccc(C(F)(F)F)cc2)[C@H](C)CN([C@@H](C)CO)C(=O)c2cc(NC(=O)CCCN(C)C)ccc2O1	1	4	-2.4
CCCC#Cc1cnc2c(c1)C(=O)N([C@@H](C)CO)C[C@H](C)[C@@H](CN(C)C(=O)Nc1cc(F)ccc1F)O2	-5	-2	-3.2
COC(=O)C[C@H]1CC[C@@H]2[C@@H](COc3ccc(NC(=O)c4ccc(C(F)(F)F)cc4)cc3C(=O)N2C)O1	2	2	-0.3
N#Cc1ccc(-c2ccc3c(c2)[C@@H]2[C@@H](CCN2C(=O)c2ccncc2)[C@H](CO)N3)cc1	-6	-5	-1.0
C[C@@H]1CN([C@H](C)CO)C(=O)c2cc(NC(=O)NC3CCCCC3)ccc2O[C@H]1CN(C)S(C)(=O)=O	-3	-3	0.1
CN(C)CC(=O)N[C@@H]1C=C[C@H](CC(=O)NCc2ccc(Cl)cc2)O[C@@H]1CO	3	0	2.2
O=C(C[C@H]1C=C[C@H](NC(=O)c2cccnc2)[C@@H](CO)O1)NCc1ccncn1	2	-4	5.2
CCCC#Cc1ccc([C@@H]2[C@H](C#N)N(S(C)(=O)=O)[C@H]2CO)cc1	4	4	0.6
CS(=O)(=O)Nc1ccc2c(c1)[C@@H]1C[C@H](CC(=O)NCCN3CCCCC3)O[C@H](CO)[C@@H]1O2	5	2	2.5
O=C(C[C@H]1CC[C@@H]2[C@H](COC[C@@H](O)CN2C(=O)c2ccccc2F)O1)N1CCCCC1	2	-1	2.5
Cc1noc(C)c1NC(=O)Nc1ccc2c(c1)C(=O)N([C@H](C)CO)C[C@@H](C)[C@@H](CN(C)S(=O)(=O)c1cccs1)OCCCC[C@H](C)O2	-1	-4	3.2
O=C(C[C@H]1CC[C@@H]2[C@H](COC[C@H](O)CN2Cc2cccc(C(F)(F)F)c2)O1)NCc1ccc(F)cc1	?	.	.
C/C=C/c1ccc([C@@H]2[C@@H](CO)N(C(C)=O)[C@H]2CN(C(=O)COC)C(C)C)cc1	-2	-1	-1.8
COCC#Cc1ccc([C@@H]2[C@H](CO)N3C(=O)CN(C(=O)Nc4ccccc4F)C[C@@H]23)cc1	-4	0	-3.2
COCC(=O)N(C)C[C@@H]1Oc2ncc(-c3ccc(F)cc3)cc2C(=O)N([C@@H](C)CO)C[C@H]1C	3	2	0.9
C/C=C/c1ccc2c(c1)O[C@@H](CN(C)C(=O)Nc1ccc(OC)cc1)[C@H](C)CN([C@H](C)CO)S2(=O)=O	5	0	4.5
CCC(=O)N[C@@H]1C=C[C@@H](CC(=O)OC)O[C@H]1CO	5	1	3.7
C[C@@H]1CCCCO[C@@H](CN(C)S(=O)(=O)c2cn(C)cn2)[C@@H](C)CN([C@H](C)CO)C(=O)c2cc(NS(=O)(=O)c3cccs3)ccc2O1	-1	-9	7.4
O=C(CCN1CCCCC1)NCC[C@@H]1CC[C@@H](NS(=O)(=O)c2cccc(Cl)c2)[C@@H](CO)O1	14	11	3.4
C[C@@H]1CN([C@@H](C)CO)C(=O)Cc2cc(NS(C)(=O)=O)ccc2O[C@@H]1CN(C)C(=O)Nc1ccccc1	1	-6	7.3
CC(C)(O)C#Cc1ccc([C@H]2[C@H](CO)N3CCCCN(C(=O)c4ccncc4)C[C@@H]23)cc1	9	4	4.8
COc1ccc2c3c(n(C)c2c1)[C@H](CO)N(Cc1ccc2c(c1)OCO2)CC31CN(C)C1	?	.	.
N#C[C@@H]1[C@@H](c2ccc(-c3ccccc3F)cc2)[C@H](CO)N1C(=O)C1CC1	0	2	-1.6
O=C(C[C@H]1C[C@H]2c3cc(NC(=O)Nc4ccc(C(F)(F)F)cc4)ccc3O[C@H]2[C@H](CO)O1)NCc1ccccn1	-4	-1	-2.5
N#C[C@@H]1[C@H](c2ccccc2)[C@@H](CO)N1C(=O)Cc1ccccc1	0	-4	3.7
O=C(C[C@@H]1C[C@@H]2c3cc(NS(=O)(=O)c4ccc(F)cc4)ccc3O[C@@H]2[C@@H](CO)O1)NCc1ccccn1	3	5	-2.1
COCC#Cc1ccc2c(c1)O[C@H](CN(C)C(=O)C1CCOCC1)[C@H](C)CN([C@@H](C)CO)S2(=O)=O	4	2	2.2
C[C@@H]1CN([C@H](C)CO)C(=O)c2cc(C#CC(C)(C)O)cnc2O[C@H]1CN(C)C(=O)C1CCOCC1	-3	-5	1.5
CO[C@@H]1CC[C@@H]2CCN(C)C(=O)[C@H](C)N(C)C(=O)c3cc(C#N)ccc3OC[C@H]1O2	-1	-1	0.8
C/C=C/c1ccc([C@@H]2[C@@H](CO)N3C(=O)CN(C(=O)Nc4cccc(OC)c4)C[C@@H]23)cc1	11	3	7.9
COCC#Cc1ccc([C@@H]2[C@@H](CO)N3C(=O)CN(C(=O)c4cccnc4)C[C@@H]23)cc1	28	5	23
CNC[C@H]1Oc2cc(-c3ccccc3OC)ccc2S(=O)(=O)N([C@H](C)CO)C[C@@H]1C	6	4	1.4
CCCNC(=O)N(C)C[C@@H]1Oc2ncc(-c3ccc(C(=O)N(C)C)cc3)cc2C(=O)N([C@@H](C)CO)C[C@H]1C	0	-1	0.4
C[C@@H]1CCCCO[C@@H](CN(C)C(=O)Nc2ccc(C(F)(F)F)cc2)[C@@H](C)CN([C@H](C)CO)C(=O)c2cc(NS(=O)(=O)c3ccc(Cl)cc3)ccc2O1	3	2	1.0
COc1cccc(CNC(=O)C[C@@H]2CC[C@H]3[C@@H](COc4ccc(NC(=O)c5cccs5)cc4C(=O)N3C)O2)c1	0	3	-2.7
C[C@@H]1CN([C@@H](C)CO)C(=O)c2cc(NC(=O)C3CCCCC3)ccc2O[C@@H](C)CCCCO[C@H]1CN(C)C(=O)c1ccccc1	-1	1	-1.8
C[C@H]1CN([C@@H](C)CO)S(=O)(=O)c2ccc(-c3cccc(C#N)c3)cc2O[C@H]1CN(C)CC1CC1	-4	-3	-0.6
C[C@H](CO)N1C[C@H](C)[C@H](CN(C)Cc2ccc(O)cc2)OCc2ccccc2-c2ccccc2C1=O	-3	5	-7.9
CN(C)CCCNC(=O)C[C@@H]1CC[C@@H]2[C@@H](COc3ccc(NC(=O)c4ccccc4F)cc3C(=O)N2C)O1	3	-2	4.5
O=C(NCc1ccccc1F)[C@@H]1[C@@H](CO)[C@@H]2Cn3c(cccc3=O)[C@@H]2N1CC1CCCC1	-1	1	-2.0
C[C@@H](O)C#Cc1ccc([C@H]2[C@@H](CO)N3CCCCN(S(=O)(=O)Cc4ccccc4)C[C@@H]23)cc1	20	2	18
CN1C(=O)c2cc(NC(=O)c3cscn3)ccc2OC[C@@H]2O[C@H](CC(=O)NCc3ccc(Cl)c(Cl)c3)CC[C@H]21	0	1	-0.5
COc1cccc(NC(=O)N2C[C@H](O)COC[C@@H]3O[C@@H](CC(=O)N(C)C)CC[C@H]32)c1	7	6	0.3
COCC(=O)N(C)C[C@H]1[C@H](c2ccccc2)[C@H](CO)N1C(=O)Cc1cccnc1	-2	-2	-0.5
C[C@@H]1CCCCO[C@@H](CN(C)S(=O)(=O)c2ccccc2)[C@H](C)CN([C@@H](C)CO)C(=O)c2cc(NS(C)(=O)=O)ccc2O1	-4	-9	4.3
CCC(=O)N1[C@H](CN(CC)C(=O)c2cccc(F)c2)[C@H](c2ccccc2)[C@@H]1CO	-4	-3	-1.3
COc1ccc(-c2ccc3n(c2=O)C[C@H]2[C@H](CO)[C@@H](C(=O)N(C)C)N(CC4CCCC4)[C@@H]32)cc1	4	6	-2.5
C[C@@H]1CN([C@H](C)CO)C(=O)Cc2cc(N(C)C)ccc2O[C@@H]1CN(C)C(=O)NC1CCCCC1	-2	-3	0.8
C[C@H]1CN([C@@H](C)CO)C(=O)Cc2cc(NS(=O)(=O)c3ccccc3)ccc2O[C@@H]1CN(C)Cc1ccc(C(=O)O)cc1	1	1	0.0
C[C@H](CO)N1C[C@H](C)[C@H](CN(C)Cc2ccc(Cl)c(Cl)c2)OCc2ccccc2-c2ccccc2C1=O	?	.	.

Eleven entries from above, set out differently:
compound,DUX4 txn inh,DUX4 txn inh difference,DUX4 txn inh control
C[C@H]1CN([C@@H](C)CO)S(=O)(=O)c2ccc(-c3cccc(C#N)c3)cc2O[C@H]1CN(C)CC1CC1,-4,-3,-0.6
C[C@H](CO)N1C[C@H](C)[C@H](CN(C)Cc2ccc(O)cc2)OCc2ccccc2-c2ccccc2C1=O,-3,5,-7.9
CN(C)CCCNC(=O)C[C@@H]1CC[C@@H]2[C@@H](COc3ccc(NC(=O)c4ccccc4F)cc3C(=O)N2C)O1,3,-2,4.5
O=C(NCc1ccccc1F)[C@@H]1[C@@H](CO)[C@@H]2Cn3c(cccc3=O)[C@@H]2N1CC1CCCC1,-1,1,-2.0
C[C@@H](O)C#Cc1ccc([C@H]2[C@@H](CO)N3CCCCN(S(=O)(=O)Cc4ccccc4)C[C@@H]23)cc1,20,2,18
CN1C(=O)c2cc(NC(=O)c3cscn3)ccc2OC[C@@H]2O[C@H](CC(=O)NCc3ccc(Cl)c(Cl)c3)CC[C@H]21,0,1,-0.5
COc1cccc(NC(=O)N2C[C@H](O)COC[C@@H]3O[C@@H](CC(=O)N(C)C)CC[C@H]32)c1,7,6,0.3
COCC(=O)N(C)C[C@H]1[C@H](c2ccccc2)[C@H](CO)N1C(=O)Cc1cccnc1,-2,-2,-0.5
C[C@@H]1CCCCO[C@@H](CN(C)S(=O)(=O)c2ccccc2)[C@H](C)CN([C@@H](C)CO)C(=O)c2cc(NS(C)(=O)=O)ccc2O1,-4,-9,4.3
CCC(=O)N1[C@H](CN(CC)C(=O)c2cccc(F)c2)[C@H](c2ccccc2)[C@@H]1CO,-4,-3,-1.3
COc1ccc(-c2ccc3n(c2=O)C[C@H]2[C@H](CO)[C@@H](C(=O)N(C)C)N(CC4CCCC4)[C@@H]32)cc1,4,6,-2.5

Later entries:
SMILES	DUX4 txn inh	DUX4 txn inh difference	DUX4 txn inh control
CC(=O)N1[C@H](CNC(=O)C2CC2)[C@H](c2ccc(-c3ccc(F)cc3)cc2)[C@@H]1CO	4	0	4.2
CO[C@H]1CC[C@H]2CCOc3c(C#N)cccc3C(=O)N(C)C[C@@H](OC)[C@H](C)C(=O)N(C)C[C@H]1O2	4	1	3.4
CC(C)CC#Cc1cnc2c(c1)C(=O)N([C@H](C)CO)C[C@@H](C)[C@H](CN(C)C(=O)CC1CC1)O2	-2	-1	-0.9
O=C1N[C@H](c2ccccc2)COCn2nncc2CC[C@H]1Cc1ccccc1	2	1	1.0
CN1c2ccc(-c3cccc(C#N)c3)cc2[C@H]2[C@H](CCN2S(=O)(=O)c2ccc(F)cc2)[C@@H]1CO	1	-3	3.7
O=C(C[C@@H]1C=C[C@H](NC(=O)CN2CCOCC2)[C@@H](CO)O1)NCc1cccc(F)c1	-2	-1	-0.8
CN1c2ccc(-c3ccc(F)cc3)cc2[C@H]2[C@H](CCN2C(=O)c2ccncc2)[C@@H]1CO	?	.	.
CCCC(=O)Nc1ccc2c(c1)C(=O)N(C)[C@@H]1CC[C@H](CC(=O)NCCc3ccncc3)O[C@@H]1CO2	1	1	0.0
COc1ccc(NC(=O)N(C)C[C@H]2OCc3ccccc3-c3c(n(C)c4ccccc34)C(=O)N([C@@H](C)CO)C[C@H]2C)cc1	5	4	1.7
CCNC(=O)Nc1ccc2c(c1)C(=O)N(C)[C@@H]1CC[C@@H](CC(=O)NCCN3CCCC3)O[C@H]1CO2	3	2	1.1
CN1C(=O)c2cc(NC(=O)c3cccc(Cl)c3)ccc2OC[C@H]2O[C@@H](CC(=O)NC3CCCCC3)CC[C@H]21	-2	-4	1.9
COc1ccc2c3c([nH]c2c1)[C@H](CO)N(C(=O)NC(C)C)CC31CCN(Cc2ccc(F)cc2)CC1	-10	-5	-5.2
N#C[C@H]1[C@H](c2ccc(-c3ccccc3)cc2)[C@H](CO)N1C(=O)Cc1ccncc1	2	1	0.4

This is a subset, so the mix of outcomes need not match the whole.
